# Screening data: PubChem, several laboratories
# Rce1 inhib: blocks yeast Ras-converting enzyme; Q03530; yeast membranes, quenched prenylated peptide cleavage fluorescence; calls only; 290,000 compounds, 0.27% hits;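 active means fall in fluorescence gain of 50% or more versus controls, with final raw signal at or below 3038400; inconclusive means same 50% fall but final raw signal above 3038400; inactive means fall in fluorescence gain under 50%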;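 further: plate controls were neutral control wells for no effect and wells lacking membranes for full effect; tested at 10 µM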
# Target sequence (Q03530 whole entry, looked up): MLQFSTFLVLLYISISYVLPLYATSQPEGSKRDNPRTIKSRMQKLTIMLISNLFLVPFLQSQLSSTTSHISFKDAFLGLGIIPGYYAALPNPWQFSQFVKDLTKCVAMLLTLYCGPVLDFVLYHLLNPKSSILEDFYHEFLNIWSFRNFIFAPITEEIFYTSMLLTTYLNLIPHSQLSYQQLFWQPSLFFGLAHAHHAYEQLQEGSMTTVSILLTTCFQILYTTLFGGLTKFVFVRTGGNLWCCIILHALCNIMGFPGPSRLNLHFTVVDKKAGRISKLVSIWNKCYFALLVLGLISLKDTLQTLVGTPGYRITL
# PABP polyA inh: PABP-poly(A) binding inhibition; inhibition, % at 35 µM; 290,000 compounds, 1% hits; P11940; PABP-poly(A) RNA binding, fluorescence polarization;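 active means 50% or more with normal probe brightness, or confirmed in later tests; inconclusive means above 50% with abnormal brightness, or retests that disagree; inactive means below 50% or failed in later tests; about a fifth of its hits are not listed in these tables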;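 further: calls also rest on retests at 20 µM and on dose response follow-up; controls were probe without protein and protein plus probe with vehicle; some compounds called inactive have numbers as strong as hits; many hits fall short of the cut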
# Yeast UUG start: yeast start codon fidelity modulation. S. cerevisiae UUG-firefly luciferase reporter, luminescence/redox ratio. activity score, % at 18.7 µM. 350,000 compounds, 0.13% hits;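 active means replicate mean at a twofold rise or more, about +100% in these data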;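 further: firefly luciferase made from a UUG start codon reports start codon fidelity; reporter light over untreated wells divided by growth signal over untreated wells; some hits fall short of that in this replicate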
# Env fusion inh: blocks HIV Env-driven cell-cell fusion; HeLa-JRFL Env/CEM21 cell fusion, luciferase; inhibition, % at 12.3 µM; 360,000 compounds, 1.1% hits; AID 651610;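 active means mean replicate inhibition score of at least 50 and every replicate individually at or above 50; inconclusive means only one of the two criteria met; inactive means mean below 50 and not all replicates reaching 50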;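 further: 0% = plate neutral controls and 100% = maraviroc near 300 nM; one replicate is shown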
# eIF4H inh: inhibitors of RNA binding by human eIF4H; Q15056; eIF4H fluorescence polarization binding assay; inhibition, % at 35 µM; 290,000 compounds, 0.94% hits;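 active means 50% or more with normal probe brightness, or confirmed in later tests; inconclusive means above 50% with abnormal brightness, or retests that disagree; inactive means below 50% or failed in later tests; about a fifth of its hits are not listed in these tables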;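 further: calls also rest on retests at 20 µM and on dose response follow-up; 0% = protein and probe with vehicle and 100% = probe without protein; strong numbers were not always called active; many hits fall short of the cut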
# MT1-MMP act inh: MT1-MMP (human) activation inhibition. 360,000 compounds, 0.061% hits. P50281. HT1080 RFP-PRO-GFP cells, GFP/RFP ratio fluorescence, overnight; percent of plate control window, DMSO zero. GFP/RFP ratio change, % at 20 µM;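 active means GFP/RFP ratio change of at least 30% with cell ATP level not reduced by more than half and red fluorescence within 50% of control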; further: strong numbers were not always called active
#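 Compound: 20 µM single dose, 1% DMSO / System: HT1080 RFP-PRO-GFP cells / Controls: DMSO and RFP-L50D-GFP cell wells / Read-out basis: GFP/RFP fluorescence ratio / Schedule: overnight compound exposure at 37 °C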
# CSC inhib: cancer stem cell inhibition. cancer stem cell-like cells viability, luminescence. inhibition, % at 7.5 µM. 300,000 compounds, 1.1% hits. AID 2717;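 active means mean at 75% or more and at least half the replicates too; inconclusive means mean and replicates disagree; tested in HMLE shEcad cells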;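 further: 0% = median of negative and 100% = median of positive control wells; the first replicate is given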
# MT1-MMP act inh RFP: second read-out of MT1-MMP act inh, no call of its own (marks repeat the call); RFP signal change, %; measured here: RFP expression control read;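 0 = vehicle wells; hits needed this value within 50% of zero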
# The depositor's hits bear a star; i = inactive; ? = inconclusive; · = no result given; & = joins results of further samples; [ ] = remark or other dose. A portion of the library; rates above refer to the full screens.
cpd	structure	MT1-MMP act inh	PABP polyA inh	MT1-MMP act inh RFP	CSC inhib	eIF4H inh	Rce1 inhib	Env fusion inh	Yeast UUG start
1	CCOc1ccc(N2CC(C(=O)Nc3ccccc3C(=O)NC3CC3)CC2=O)cc1 (stereo unspecified)	-1.3	-5.4	0.3	-10.3	-6.5	i	5.2	-9.1
2	Cc1ccc(NC(=S)NCC(C)C)cc1	1.0	-8.1	-2.6	-12.7	-4.3	i	-11.2	-31.3
3	O=c1[nH]c(CN2CCN(Cc3ccccc3)CC2)nc2scc(-c3ccccc3)c12	-7.4	-0.7	-10.0	-4.1	4.3	i	10.9	-5.2
4	COc1ccc(/C(N)=N/OC(=O)c2ccc3c(c2)OCO3)cc1	-1.0	-0.2	1.8	-3.8	-6.8	i	-39.1	·
5	c1ccc(C(Cc2nc(-c3cccnc3)no2)c2ccccc2)cc1	1.2	-8.7	-8.5	-20.6	-2.2	i	·	·
6	Cc1cc(C)n(-c2ccc(C(C)C)cc2)c(=O)c1C#N	2.0	-1.0	6.5	-23.2	8.3	·	26.6	·
7	CCC(=NCCN1CCNCC1)C1=C(O)CC(C)(C)CC1=O	1.0	3.1	4.5	-6.7	1.9	i	·	-17.5
8	CCOc1ccc(CNC(=O)C2CCCN(S(=O)(=O)N3CCC(C)CC3)C2)cc1OC (stereo unspecified)	0.1	·	1.1	·	·	·	14.0	-19.3
9	CC(C)CCNC(=O)c1cc(S(=O)(=O)N2CCC3(CC2)OCCO3)ccc1F	0.9	·	-5.1	·	·	·	17.1	-5.8
10	CN(Cc1ccccc1)C(=O)c1ccc(NC(=O)Cc2ccc(NC(=O)C3CCCN(C(=O)c4ccccc4)C3)cc2)cc1 (stereo unspecified)	1.9	·	-19.3	·	·	·	13.0	-5.9
11	Cc1ccc(S(=O)(=O)/N=C(/Nc2ccccc2C)c2ccccc2)cc1	0.3	·	-2.8	-7.2	·	·	11.7	-7.3
12	CCOC(=O)c1ccc2c(c1)C1C=CCC1C(C(=O)O)N2 (stereo unspecified)	·	82.2*	·	-1.2	91.8*	·	·	·
13	CCc1cccc(C)c1NC(=O)Cn1c(NCCO)nc2ccccc21	-3.0	3.1	2.4	-8.7	-8.6	i	·	·
14	Cc1cc(Cl)ccc1Oc1nc(-c2ccccc2)ncc1S(C)(=O)=O	-2.8	6.4	-4.4	4.9	-0.5	i	·	-16.0
15	Cc1cccc(C)c1N1CCN(S(=O)(=O)c2ccc(F)cc2)CC1	-3.5	-11.9	-2.3	13.1	-4.7	i	·	-11.2
16	CCOc1cc(N2CCOCC2)c(OCC)cc1NC(=O)Cc1cn2ccsc2n1	1.3	11.9	3.9	-13.8	-7.7	i	·	-1.5
17	Cc1ccc(NC(=O)Cn2cc(C=O)c3ccccc32)cc1C	-0.4	-2.3	-24.2	-5.6	-3.3	i	0.7	-2.9
18	Cc1ccc(C)c(C(=O)CCC(=O)Nc2ccc(F)cc2)c1	2.2	1.7	-0.4	-3.6	2.1	i	8.7	-7.1
19	N#Cc1c(N)nc2c3c(sc(=N)c2c1N)NC(=O)CC3c1ccccc1Cl (stereo unspecified)	4.7	-2.1	-0.8	13.0	-8.2	i	?	·
20	CCOc1ccccc1OCC(=O)NNC(=S)NC1CCCCC1	0.9	-10.3	3.3	-8.5	-3.5	i	1.4	·
21	CCN(CC(=O)Nc1ccc(NC(C)=O)cc1)CC(=O)Nc1cc(C)on1	-3.2	·	4.4	0.7	·	·	·	-22.7
22	COc1ccccc1CNC(=O)COc1ccc(S(=O)(=O)N2CCOCC2)cc1	2.5	·	1.8	0.1	·	i	-23.3	5.9
23	CCO[C@H]1OC(C(=O)O)=C[C@@H](c2ccc(C(F)(F)F)cc2)[C@@H]1CCCO	-7.5	9.6	2.5	-2.8	-5.7	i	10.1[16.7 µM]	-0.7&1.2
24	Cc1[nH]n(-c2ccccc2)c(=O)c1C(c1ccc(C(=O)O)cc1)c1c(C)[nH]n(-c2ccccc2)c1=O	7.6	4.1	2.0	-8.7	-2.8	i	·	·
25	C=CCN(CC=C)c1ncnc2[nH]ncc12	-13.1	·	-5.5	·	·	·	14.3	-9.6
26	Nc1ncnc(Nc2ccccc2Cl)n1	-4.0	-2.3	-0.7	6.1	-8.7	i	-5.8	·
27	CCOC(=O)c1c(C)[nH]c(C)c1S(=O)(=O)NC1CCN(C(=O)OCC)CC1	0.0	-5.6	5.1	-6.9	-4.0	i	3.8	-9.5
28	COc1ccccc1/C=C/CN1CCCCC1	-2.2	6.1	2.6	-2.3	-0.1	i	19.7	-6.1
29	Cn1c(=O)oc2cc(S(=O)(=O)N3CCC(C(=O)N4CCN(c5ccccc5)CC4)CC3)ccc21	3.6	-15.3	-4.1	-0.7	-6.2	·	9.1	3.4
30	Cc1ccc(CNC(=O)C2(NC(=O)Nc3ccc(C)cc3)CCCCC2)cc1	-0.9	-2.0	-0.6	·	-6.4	i	·	-14.1
31	Cc1ccc([N+](=O)[O-])cc1NC(=O)C1CCN(S(C)(=O)=O)CC1	-0.5	-0.7	1.4	-10.6	-3.4	i	9.3	-11.3
32	O=C(O)C1=C[C@H](c2ccccc2)C[C@H](OCc2ccc(CO)cc2)O1	7.4	-4.6	-0.5	10.1	-0.7	i	11.5	-0.3

# Reprinted: nos. 31–32
cpd	structure	MT1-MMP act inh	PABP polyA inh	MT1-MMP act inh RFP	CSC inhib	eIF4H inh	Rce1 inhib	Env fusion inh	Yeast UUG start
31	Cc1ccc([N+](=O)[O-])cc1NC(=O)C1CCN(S(C)(=O)=O)CC1	-0.5	-0.7	1.4	-10.6	-3.4	i	9.3	-11.3
32	O=C(O)C1=C[C@H](c2ccccc2)C[C@H](OCc2ccc(CO)cc2)O1	7.4	-4.6	-0.5	10.1	-0.7	i	11.5	-0.3

# Later entries
cpd	structure	MT1-MMP act inh	PABP polyA inh	MT1-MMP act inh RFP	CSC inhib	eIF4H inh	Rce1 inhib	Env fusion inh	Yeast UUG start
33	NC(=O)C1CCN(C(=O)c2ccc(Oc3ccccc3)cc2)CC1	4.7	9.6	1.7	3.7	-0.4	i	·	-6.7
34	O=C(NC1CCCCC1)C(c1ccccc1)N(C(=O)c1csnn1)C1CCCC1 (stereo unspecified)	-0.7	33.4	2.2	-1.5	-16.2	i	47.9	5.4
35	Cc1ccc(Cn2cc(C(=O)c3ccc(F)cc3)c(=O)c3cc4c(cc32)OCCO4)cc1	0.5	-1.9	0.8	-7.7	-9.0	i	1.3	0.6
36	CCSc1ccccc1C(=O)Nc1cccc(OC)c1	2.9	-0.6	4.6	-12.6	-4.8	i	-11.9	-9.7
37	COCc1cc(=O)n2[nH]c(C)cc2n1	1.9	0.6	2.8	-10.9	-3.2	i	·	-12.0
38	CCC1(CC)C(=O)C2=C3C1[C@H](C(=O)OC)CC(C(=O)OC)C[C@H]3n1c(=O)n(C)c(=O)n1[C@H]2C (stereo partly specified)	3.1	·	3.5	·	·	i	-17.1	2.9
39	COc1cc(S(=O)(=O)N2CCOCC2)ccc1NC(=O)COc1ccc(N(C)S(=O)(=O)c2ccc(C)cc2)cc1	1.3	4.0	-7.4	-9.9	-5.6	i	36.6	·
40	Cc1ccc(C(=O)CSc2nnc(-c3snnc3C)n2C2CC2)cc1	2.9	1.2	2.6	-8.5	3.0	i	-9.7	-20.8
41	Cc1cc(NS(=O)(=O)c2ccc(NC(=O)COc3ccc(Br)cc3)cc2)nc(C)n1	4.3	6.7	0.6	-5.4	-2.3	i	4.3	-10.5
42	COC(=O)[C@]1(Cc2ccccc2)N[C@H](c2ccc(SC3CCCCC3)c(OC)c2)[C@@H]2C(=O)N(C)C(=O)[C@@H]21	0.7	·	-5.0	5.0	·	·	-33.5	-5.6
43	CC1CN(C(=O)/C(C#N)=C2\N=C(NC(=O)c3ccc(F)cc3)c3ccccc32)CC(C)O1 (stereo unspecified)	-3.0	1.3	5.2	5.2	-6.5	i	-1.2	-0.4
44	O=C(CN(Cc1ccccc1)C(=O)CCC(=O)Nc1nccs1)NCC1CCCO1 (stereo unspecified)	2.6	7.3	2.6	·	-4.5	i	-3.5	-16.0
45	O=C(CSc1nnc(-c2ccccn2)n1Cc1ccccc1)NC1CCCC1	2.9	-11.9	3.6	-2.6	-1.1	i	·	-18.7
46	Cc1nn(CC(=O)NCCN2CCOCC2)c(=O)c2ccccc12	3.0	-0.5	1.8	-17.2	-8.1	·	9.5	-9.4
47	O=S(=O)(Nc1nccs1)c1ccc(NS(=O)(=O)c2cccs2)cc1	-1.2	14.3	2.2	9.6	9.4	i	-92.8	-4.2
48	COc1cccc(NC(=O)CS(=O)(=O)Cc2nc(-c3ccc(C)cc3)oc2C)c1	4.7	-9.9	-2.2	-18.0	-14.7	i	10.9	-15.3

# Sorted by the number under Env fusion inh (descending): seven of the compounds above
item | SMILES | MT1-MMP act inh | MT1-MMP act inh RFP | Rce1 inhib | Env fusion inh | Yeast UUG start
48 | COc1cccc(NC(=O)CS(=O)(=O)Cc2nc(-c3ccc(C)cc3)oc2C)c1 | 4.7 | -2.2 | i | 10.9 | -15.3
46 | Cc1nn(CC(=O)NCCN2CCOCC2)c(=O)c2ccccc12 | 3.0 | 1.8 | · | 9.5 | -9.4
41 | Cc1cc(NS(=O)(=O)c2ccc(NC(=O)COc3ccc(Br)cc3)cc2)nc(C)n1 | 4.3 | 0.6 | i | 4.3 | -10.5
43 | CC1CN(C(=O)/C(C#N)=C2\N=C(NC(=O)c3ccc(F)cc3)c3ccccc32)CC(C)O1 (stereo unspecified) | -3.0 | 5.2 | i | -1.2 | -0.4
44 | O=C(CN(Cc1ccccc1)C(=O)CCC(=O)Nc1nccs1)NCC1CCCO1 (stereo unspecified) | 2.6 | 2.6 | i | -3.5 | -16.0
42 | COC(=O)[C@]1(Cc2ccccc2)N[C@H](c2ccc(SC3CCCCC3)c(OC)c2)[C@@H]2C(=O)N(C)C(=O)[C@@H]21 | 0.7 | -5.0 | · | -33.5 | -5.6
47 | O=S(=O)(Nc1nccs1)c1ccc(NS(=O)(=O)c2cccs2)cc1 | -1.2 | 2.2 | i | -92.8 | -4.2

# Additional structures:
cpd	structure	MT1-MMP act inh	PABP polyA inh	MT1-MMP act inh RFP	CSC inhib	eIF4H inh	Rce1 inhib	Env fusion inh	Yeast UUG start
49	CCN(CC)C(=O)CSc1nnc(CCNC(=O)OC(C)(C)C)o1	-0.1	2.8	2.3	-3.9	2.4	·	-16.3	-7.0
50	NS(=O)(=O)c1cccc(NC(=O)CCCC2CCCCC2)c1	2.2	-1.4	4.2	-6.0	-6.4	i	-4.1	-9.4
51	CC/C(=N\NC(=O)Nc1ccccc1)c1ccccc1	3.4	-6.3	-0.5	0.7	-8.6	i	-3.5	-11.7
52	COCC(C)NS(=O)(=O)c1ccc(NC(=O)c2ccccn2)cc1 (stereo unspecified)	8.7	-12.1	-4.7	-9.5	-7.0	i	-2.8	-11.1
53	O=C(CN1C(=O)c2ccccc2S1(=O)=O)NCCc1ccccc1	-3.2	9.3	-1.0	3.0	0.2	i	-13.2	-31.6
54	OCC(O)CSc1nc(-c2ccccc2)nc2c1CCC2 (stereo unspecified)	-0.3	6.4	2.5	-6.7	1.1	i	-14.5	-19.3
55	COCCNc1cc(C)nc2cc(-c3ccc(C)cc3)nn12	-1.8	?	-0.6	4.7	-7.3	i	-36.1	·
56	Cc1cccc(Nc2nnc(C)c(=O)n2N)c1	3.4	-17.6	0.3	-5.3	3.3	i	·	-23.6
